Source: PubChem BioAssay (Broad Institute)
A1 inh = inducers of caspase activity in MEF A1-2A-BIM cells, primary screen, A1 inhibitor project, cell-based, CaspaseGlo luminescence; caspase-Glo luminescence, 3 h; percent of clofoctol signal, DMSO as zero; caspase activation, % (test concentration not listed); hit rate 0.51% among 21,000; AID 2241, 2010;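 active = most replicate scores above 10, or exactly half above 10 with mean activity above 10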;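 note: effector caspase 3 and 7 activity cleaving a DEVD luciferin substrate; 50 nL library stock added to about 30 µL; numbers are from one replicate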
BJeLR viab HTS = BJeLR cell viability loss, primary screen, luminescence, CellTiterGlo ATP | BJeLR fibroblasts viability, 48 h; HRASV12, hTERT and SV40 LT/ST transformed | viability loss activity score, % (concentration not given with the values) | hit rate 0.64% among 30,000 | AID 2275, 2010; in the data active = viability loss activity score above about 50%; about a fifth of its hits are not listed in these tables;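 note: higher score means fewer live cells and less ATP luminescence; stock transfer was 50 or 100 nL into about 30 µL; 0% = vehicle wells and 100% = a reference killing control; one replicate is shown; the record names a cut of 85%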
The depositor's hits bear a star; x = not tested or not shown. An excerpt. The share of hits here may be higher or lower than overall.

The line under a structure holds: A1 inh	BJeLR viab HTS
N#CCCN1CCN(Cc2cc(-c3ccccc3)ccc2O)CC1
    0.1	6.5
CC(C)N(C(=O)NC(=O)c1csnn1)C(C)C
    0.2	-3.1
c1ccc(Cn2ccc3ccccc32)cc1
    0.2	-0.1
C[C@@H]1CN([C@@H](C)CO)C(=O)c2cccc(NC(=O)Nc3cccc4ccccc34)c2O[C@H]1CN(C)S(=O)(=O)c1ccc(Cl)cc1
    x	5.4
C[C@@H]1CN([C@H](C)CO)C(=O)c2cccc(NC(=O)Nc3ccc(C(F)(F)F)cc3)c2O[C@@H]1CN(C)S(=O)(=O)c1ccccc1
    x	-10
Cc1noc(C)c1S(=O)(=O)Nc1ccc2c(c1)C(=O)N([C@@H](C)CO)C[C@@H](C)[C@H](CN(C)Cc1ccccc1)O2
    0.7	-1.4
Cc1cccc2c1-c1sc(C(=O)NCCN3CCCCC3C)cc1CO2 (stereo not given)
    1.5	3.5
Cc1ccc2nc(-c3ccc(C(F)(F)F)cc3)oc2c1
    x	1.0
C[C@H]1CN([C@@H](C)CO)C(=O)c2cc(NC(=O)Nc3ccccc3)ccc2O[C@@H]1CN(C)Cc1ccc(C(=O)O)cc1
    -0.4	4.4
Cn1c2ccccc2c2cnn(CNC(=O)Nc3ccc(F)cc3)c(=O)c21
    x	-8.0
CC(C)C(NC(=O)c1ccc(C23CC4CC(CC(C4)C2)C3)cc1)C(=O)N(C)Cc1ccco1 (stereo not given)
    x	-0.6
CCn1c(N)c(C(N)=O)sc1=S
    0.1	-4.4
CC(C)C1C(=O)OC2(C)CC(C)(C)NC(=S)N12 (stereo not given)
    2.8	0.4
CC(=O)Nc1[nH]c2c(c1C#N)CCCCC2
    0.1	1.0
O=C(CSC1=NCCS1)N1CCN(c2ccccc2)CC1
    x	2.1
O=C1c2ccccc2C(=O)N1CCCc1nc(-c2ccc(Cl)cc2)no1
    x	2.5
O=C(Nc1ccc2c(c1)nc1n2CCN(Cc2ccccc2)C1)C1CCCCC1
    x	-3.0
O=C(CN(CCc1ccccc1)S(=O)(=O)c1ccc(Br)cc1)NC1CC1
    0.0	-5.3
C[C@H](CO)N1C[C@H](C)[C@@H](CN(C)S(=O)(=O)c2ccccc2)Oc2c(NC(=O)NC3CCCCC3)cccc2C1=O
    x	-2.8
NS(=O)(=O)c1ccc(CCNC(=O)c2cc3c(s2)-c2ccccc2OC3)cc1
    0.4	5.1
COc1cc(C(C)=O)ccc1O[C@@H]1O[C@H](CO)[C@@H](O)[C@H](O)[C@H]1O
    0.6	-12
COc1ccc(OCCN2C(=O)CNC2=S)cc1
    0.2	-3.9
Cc1cccc(NC(=O)C2C3CC/C=C\CCC32)c1 (stereo not given)
    1.4	-3.1
CC(C)NC(=O)Nc1ccc2c(c1)C(=O)N([C@H](C)CO)C[C@H](C)[C@@H](CN(C)Cc1ccc(-c3ccccc3)cc1)O2
    1.5	-4.3
C=C(CO)C(=O)O[C@H]1CC(=C)[C@@H]2CC(=O)[C@H](C)[C@@H]2[C@H]2OC(=O)C(=C)[C@@H]21
    0.4	69*
COc1cc(C2c3c(cc(OC)c(O)c3O)CC(CO)C2CO[C@@H]2O[C@H](C(=O)O)[C@@H](O)[C@H](O)[C@H]2O)cc(OC)c1O (stereo not given in full)
    0.2	-5.5
Cc1cc(-c2nnc(-c3ccc(Cl)cc3)o2)no1
    -4.2	1.6
Cc1onc(-c2c(Cl)cccc2Cl)c1NC(=O)N1CCCC1=O
    0.4	-2.6
CCOC(=O)c1sc(NC(=O)CC)nc1C
    0.0	4.2
CC(C)C1N=C2c3ccccc3N=C(SCC(=O)c3ccc(Br)cc3)N2C1=O (stereo not given)
    0.5	-2.1
CC1=C(C(=O)Nc2ccccc2Br)C2(CCCCC2)OC1=O
    x	-3.8
COc1ccc(NC(=O)N(C)C[C@H]2Oc3c(NC(=O)c4ccc(-c5nccs5)cc4)cccc3C(=O)N([C@@H](C)CO)C[C@H]2C)cc1
    x	-8.9
CN(C(=O)N1c2ccccc2Sc2ccccc21)c1ccccc1
    x	-4.5
CC(=O)Nc1c(C(=O)c2ccccc2)oc2ccccc12
    -0.6	0.4
CCOc1ccc(NC(=O)NCCCN2CCCC2)cc1
    x	1.9
COc1ccc(C(=S)N2CCCCC2)cc1OC
    -0.2	1.2
C[C@@H]1CN([C@@H](C)CO)C(=O)c2cccc(NC(=O)NC3CCCCC3)c2O[C@@H]1CN(C)C
    x	-0.6
C[C@H](CO)N1C[C@H](C)[C@@H](CN(C)Cc2ccc(Oc3ccccc3)cc2)Oc2ccc(NC(=O)Nc3ccc(C(F)(F)F)cc3)cc2C1=O
    0.4	-0.2
COc1cc(N)c(Cl)cc1C(=O)OCCCN1CCCCC1
    0.0	2.1
CCN(CC)S(=O)(=O)c1ccc2oc(C(=O)Nc3cccc(Cl)c3)c(C)c2c1
    1.0	5.7
CCS(=O)(=O)NCCc1csc(C)n1
    0.5	-4.1
COc1ccc(CC(=O)N(CC#N)CC#N)cc1OC
    0.0	-2.7
COc1ccc(NC(=O)N(C)C[C@H]2Oc3ccc(NS(=O)(=O)c4cn(C)cn4)cc3C(=O)N([C@@H](C)CO)C[C@H]2C)cc1
    0.2	-2.2
COc1ccc(S(=O)(=O)N(C)C[C@@H]2Oc3ccc(NC(=O)NC(C)C)cc3C(=O)N([C@H](C)CO)C[C@H]2C)cc1
    -0.6	1.3
COc1ccc2[nH]c3c(=O)n(CCc4ccc(Cl)cc4)cnc3c2c1
    -0.7	-11

By substructure: the compounds so far containing a Cl atom.
The line under a structure holds: A1 inh	BJeLR viab HTS
C[C@@H]1CN([C@@H](C)CO)C(=O)c2cccc(NC(=O)Nc3cccc4ccccc34)c2O[C@H]1CN(C)S(=O)(=O)c1ccc(Cl)cc1
    x	5.4
O=C1c2ccccc2C(=O)N1CCCc1nc(-c2ccc(Cl)cc2)no1
    x	2.5
Cc1cc(-c2nnc(-c3ccc(Cl)cc3)o2)no1
    -4.2	1.6
Cc1onc(-c2c(Cl)cccc2Cl)c1NC(=O)N1CCCC1=O
    0.4	-2.6
COc1cc(N)c(Cl)cc1C(=O)OCCCN1CCCCC1
    0.0	2.1
CCN(CC)S(=O)(=O)c1ccc2oc(C(=O)Nc3cccc(Cl)c3)c(C)c2c1
    1.0	5.7
COc1ccc2[nH]c3c(=O)n(CCc4ccc(Cl)cc4)cnc3c2c1
    -0.7	-11

Whole records, looked up by structure:
Entry for COc1ccc2[nH]c3c(=O)n(CCc4ccc(Cl)cc4)cnc3c2c1 → A1 inh: -0.7; BJeLR viab HTS: -11
Entry for COc1ccc(S(=O)(=O)N(C)C[C@@H]2Oc3ccc(NC(=O)NC(C)C)cc3C(=O)N([C@H](C)CO)C[C@H]2C)cc1 → A1 inh: -0.6; BJeLR viab HTS: 1.3

Further results:
Molecule	A1 inh	BJeLR viab HTS
COc1ccc(S(=O)(=O)N(C)C[C@H]2Oc3ccc(NS(=O)(=O)c4ccc(F)cc4)cc3C(=O)N([C@@H](C)CO)C[C@@H]2C)cc1	0.2	1.7
COc1ccc(NC(=O)N(C)C[C@@H]2Oc3c(NS(=O)(=O)c4ccc(Cl)cc4)cccc3C(=O)N([C@H](C)CO)C[C@@H]2C)cc1	x	-1.4
COc1ccc(CCNC(=O)CSc2c3c(nc4cc(Cl)ccc24)CCCC3)c(OC)c1	x	-3.0
O=C1c2ccccc2C(=O)N1c1ccc(OC(F)(F)F)cc1	-1.4	1.7
O=C(C/C(=C1/CCc2ccccc2C1=O)c1ccccc1)c1ccccc1	0.3	-6.6
COC(=O)c1c(-c2snnc2C)n[nH]c1C	0.2	-0.8
COc1ccc(NC(=O)Nc2cccc3c2O[C@@H](CN(C)S(=O)(=O)c2ccc(Cl)cc2)[C@@H](C)CN([C@@H](C)CO)C3=O)cc1	x	-1.8
O=C(Nc1ccc(C(=O)OC2CCCCC2)cc1)c1ccncc1	-1.0	14
COc1cccc2c1C(=O)c1ccc3c(c1C2=O)C(=O)CC(C)(O)C3 (stereo not given)	-1.1	0.0
CNC[C@@H]1Oc2c(NC(=O)NC3CCCCC3)cccc2C(=O)N([C@@H](C)CO)C[C@@H]1C	x	-0.3
C=CCSc1nc(N)c(C(=O)Nc2ccccc2)cc1C(N)=O	0.7	2.1
CC1CN(CCc2ccccc2)c2nc3c(c(=O)n(CC(N)=O)c(=O)n3C)n2C1 (stereo not given)	-0.7	8.0
C[C@@H]1CN([C@@H](C)CO)C(=O)c2cccc(NC(=O)C3CCCCC3)c2O[C@H]1CN(C)S(C)(=O)=O	x	2.8
CCn1cc(C(=O)O)c(=O)c2cc(F)c(N3CCN(C(=O)c4ccc(F)cc4)CC3)cc21	-0.3	4.1
C[C@H]1CN([C@@H](C)CO)C(=O)c2cccc(NS(=O)(=O)c3cn(C)cn3)c2O[C@@H]1CN(C)C(=O)Nc1ccc(C(F)(F)F)cc1	x	-4.1
Cc1ccc(OCC(=O)NC2CCS(=O)(=O)C2)cc1 (stereo not given)	0.8	-2.0
CCc1ccc(NC(=O)CCS(=O)(=O)c2cccc3nonc23)cc1	x	-1.1
N#CCc1nc(-c2ccc(Cl)c(Cl)c2)cs1	-0.5	1.6
Cc1noc(C)c1NC(=O)Nc1ccc2c(c1)C(=O)N([C@H](C)CO)C[C@@H](C)[C@H](CN(C)Cc1ccc(Cl)c(Cl)c1)O2	-0.1	-4.2
CC(C)OC(=O)c1ccc(NC(=O)c2ccc(Cn3cc(Cl)cn3)cc2)cc1	x	13
C[C@H]1CN([C@@H](C)CO)C(=O)c2cc(N(C)C)ccc2O[C@@H]1CN(C)C(=O)Nc1ccc2c(c1)OCO2	-0.1	-2.9
COc1ccccc1C(=O)Nc1ccc(C)cc1C	-5.5	5.4
C[C@@H]1CN([C@@H](C)CO)C(=O)c2cc(NS(=O)(=O)c3ccc(F)cc3)ccc2O[C@H]1CN(C)S(=O)(=O)c1cn(C)cn1	0.8	-2.9
CC(C)NC(=O)Nc1ccc2c(c1)C(=O)N([C@H](C)CO)C[C@H](C)[C@H](CN(C)Cc1ccc(Oc3ccccc3)cc1)O2	0.0	1.0
Cc1noc(C)c1S(=O)(=O)Nc1ccc2c(c1)C(=O)N([C@H](C)CO)C[C@@H](C)[C@H](CN(C)S(C)(=O)=O)O2	-0.1	-1.7
CC1(c2ccc(F)cc2)CC(=O)c2cc(O)ccc2O1 (stereo not given)	0.7	3.2
CC(C)NC(=O)Nc1cccc2c1O[C@@H](CN(C)C(=O)Nc1ccc(C(F)(F)F)cc1)[C@H](C)CN([C@H](C)CO)C2=O	x	-7.2
C=CCNC(=O)c1scc2c1CCCC2	0.9	1.2
FC(F)(F)c1cc(N2CCC(n3cccc3)CC2)c2ccccc2n1	-0.2	-1.3
N#Cc1c2c(c(N3CCCCC3)n3c1nc1ccccc13)CCC2	-0.2	5.7
C=C1C[C@@]23CC[C@@H]4[C@](C)(C(=O)O)CCC[C@@]4(C)C2=CC[C@H]1C3	-0.5	-6.8
COc1ccc(CN2C(=O)CC(Cc3ccc(C)cc3)C2=O)cc1OC (stereo not given)	0.0	1.3
N=c1cc(C2(O)CCCCC2)n2c(nc3ccccc32)s1	-6.6	7.9
CC(C)(C)c1ccc(NC(=O)c2cnccn2)cc1	-5.9	3.9
COC(=O)c1ccc(-c2ccco2)n1CC(=O)NCCN1CCN(C)CC1	-0.2	-1.0
O=C(Cn1c(=O)n(-c2ccccc2)c(=O)c2cc(-c3ccccc3)sc21)c1cccs1	0.0	-3.9
Cc1noc(C)c1NC(=O)Nc1cccc2c1O[C@@H](CN(C)S(=O)(=O)c1ccc(F)cc1)[C@H](C)CN([C@@H](C)CO)C2=O	x	-0.5
C[C@@H]1CN([C@@H](C)CO)C(=O)c2cccc(NC(=O)C3CCCCC3)c2O[C@@H]1CN(C)C(=O)Nc1ccc(C(F)(F)F)cc1	x	-1.0
Cc1ccc2nc(NC(=O)C3CC(O)CN3C(=O)Oc3ccccc3)sc2c1 (stereo not given)	x	-0.8
CCN1C(=O)c2cccc3c(S(=O)(=O)Nc4ccccc4)ccc1c23	1.4	2.3
COc1ccc(S(=O)(=O)Nc2ccc3c(c2)C(=O)N([C@@H](C)CO)C[C@@H](C)[C@@H](CN(C)C(=O)Nc2ccc4c(c2)OCO4)O3)cc1	0.1	6.8
COC(=O)c1ccc(CSc2ccccc2C)o1	-1.2	-4.7
COc1ccc(NC(=O)N(C)C[C@H]2Oc3ccc(NC(=O)c4ccncc4)cc3C(=O)N([C@@H](C)CO)C[C@H]2C)cc1	-0.1	2.0
CCc1ccc2nc(N)sc2c1	-6.1	0.9
CC(C)Cn1c2ccc(Br)cc2c2nc3ccccc3nc21	-0.2	6.9
NNC(=O)CCn1c(-c2ccccc2)c(-c2ccccc2)c2ccccc21	x	2.7
Cc1nnsc1C(=O)OCCN(C)c1ccc(C#N)cn1	0.0	-4.2
CCCSc1nnc(Cn2c(=O)sc3ccccc32)n1CCc1ccccc1	-0.2	0.3
O=C(NC1CCCC1)c1cc(-c2ccc(Cl)s2)nc2ccccc12	x	1.4
CCOC(=O)c1ccc2nc(C(F)(F)F)cc(NC3CCN(Cc4ccccc4)CC3)c2c1	0.2	-1.8
C[C@@H]1CN([C@H](C)CO)C(=O)c2cccc(NC(=O)Nc3ccccc3)c2O[C@@H]1CN(C)S(C)(=O)=O	x	3.6
C[C@H]1CN([C@@H](C)CO)C(=O)c2cc(NC(=O)CCCCCC(=O)Nc3ccccc3N)ccc2O[C@H]1CN(C)CC1CCCCC1	x	6.4
Cc1ccc(S(=O)(=O)N(C)C[C@H]2Oc3ccc(NS(=O)(=O)c4ccc(F)cc4)cc3C(=O)N([C@@H](C)CO)C[C@@H]2C)cc1	0.5	-0.2
